Source: PubChem
FGF22 binding: shifts melting point of recombinant human FGF22; calls only at 9.99 µM; Q9HCT0; recombinant FGF22 thermal shift, SYPRO orange fluorescence; percent of sucrose octasulfate shift, DMSO zero; AID 651658; actives 1.5% (n = 340,000);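 active means melting point raised past a set limit in the mean and every replicate; three in four hits are not shown here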
Target sequence (Q9HCT0 whole entry, looked up): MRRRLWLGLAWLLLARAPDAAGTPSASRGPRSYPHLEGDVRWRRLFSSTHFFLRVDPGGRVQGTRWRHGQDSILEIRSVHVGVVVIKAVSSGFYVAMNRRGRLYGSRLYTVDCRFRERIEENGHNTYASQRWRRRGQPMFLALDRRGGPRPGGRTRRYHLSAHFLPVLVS
Bfl-1 A1 inh: inhibitors of the anti-apoptotic protein A1, read as caspase activation; MEF A1-2A-BIM cells, Caspase-Glo 3/7 luminescence, 3 h; percent of clofoctol response, vehicle zero; caspase activation, % (no concentration beside the values); actives 0.066% (n = 330,000); AID 2462;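 active means over half of replicate activation scores above 10%, or exactly half above 10 with the replicate mean above 10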;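 further: wells of about 30 µL received 50 nL stock; many hits fall short of the cut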
Beta apoptosis: blocks beta cell apoptosis; protection from apoptosis, % (test concentration not listed); AID 435005; actives 0.8% (n = 300,000); INS-1E cytokine-induced death, ATP luminescence, 48 h; percent of positive-control rescue, neutral wells zero;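 active means all replicates at 75% or more, or half of them and the mean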;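 further: 0% = cytokine-treated negative control wells and 100% = positive control rescue; higher means more ATP so stronger rescue from cytokine killing; wells of about 40 µL received 100 nL stock; the first replicate is given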
AF4-AF9 inh: inhibitors of human MLL-AF4/AF9 interaction; P42568; AlphaScreen, biotin-AF4 peptide binding to FLAG-AF9; inhibition, % at 10 µM; actives 0.47% (n = 350,000); AID 651704;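 active means every replicate reaching a set inhibition limit, whatever the replicate mean, cut at about 25% in these data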;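 further: 0% = plate neutral control median and 100% = total signal loss; the record names both 10 and 1 µM as test concentration; the first replicate is given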
Target sequence (P42568 whole entry, looked up): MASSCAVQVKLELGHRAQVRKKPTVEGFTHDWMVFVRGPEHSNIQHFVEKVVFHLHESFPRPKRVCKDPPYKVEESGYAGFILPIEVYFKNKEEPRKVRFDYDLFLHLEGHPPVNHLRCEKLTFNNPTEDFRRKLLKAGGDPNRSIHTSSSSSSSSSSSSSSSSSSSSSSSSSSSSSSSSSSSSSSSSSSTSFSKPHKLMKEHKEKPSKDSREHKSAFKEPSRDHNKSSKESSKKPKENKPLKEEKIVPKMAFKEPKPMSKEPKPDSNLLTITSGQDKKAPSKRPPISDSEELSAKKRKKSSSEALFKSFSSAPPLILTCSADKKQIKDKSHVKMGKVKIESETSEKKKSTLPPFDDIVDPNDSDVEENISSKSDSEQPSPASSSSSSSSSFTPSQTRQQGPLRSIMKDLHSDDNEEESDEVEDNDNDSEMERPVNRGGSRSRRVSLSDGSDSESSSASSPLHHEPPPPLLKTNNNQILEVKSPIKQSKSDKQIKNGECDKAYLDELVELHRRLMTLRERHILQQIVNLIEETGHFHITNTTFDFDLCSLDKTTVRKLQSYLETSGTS
T cruzi inh: T. cruzi replication inhibition. T. cruzi beta-gal in NIH3T3, luminescence, 90 h. inhibition, % (test concentration not listed). actives 1.4% (n = 300,000);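 active means mean inhibition across valid replicates above about 55%, limit read from the data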;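 further: signal also drops with host cell toxicity which is not excluded here; 0% = plate median of DMSO wells and 100% = zero luminescence signal; higher percent means less beta-gal luminescence so fewer parasites; stock transfer was 50 nL into about 50 µL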
rRNA inh HTS: selective bacterial rRNA inhibition in E. coli; GFP signal change (wild-type ribosome), % (concentration not given with the values); actives 1.6% (n = 350,000); E. coli WT GFP vs humanized-ribosome RFP mutants, fluorescence, 24 h; stronger effect = lower value; DMSO median 0, no signal -100;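 active means significant combined selectivity score with lowered wild-type GFP, culture density cut under 30%, mutant RFP and density less affected; inactive means any of these conditions unmet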; further: one replicate is shown; some compounds called inactive have numbers as strong as hits
UCH37 inh: human UCH37 deubiquitinating enzyme inhibition; actives 0.33% (n = 330,000); inhibition, % (no concentration beside the values); purified proteasome/UCH37, Ub-AMC cleavage fluorescence; Q9Y5K5;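 active means mean of two replicates above 20%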;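 further: 0% = compound-free wells with enzyme and 100% = wells lacking proteasome; stock transfer was 100 nL into about 20 µL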
Target sequence (Q9Y5K5 whole entry, looked up): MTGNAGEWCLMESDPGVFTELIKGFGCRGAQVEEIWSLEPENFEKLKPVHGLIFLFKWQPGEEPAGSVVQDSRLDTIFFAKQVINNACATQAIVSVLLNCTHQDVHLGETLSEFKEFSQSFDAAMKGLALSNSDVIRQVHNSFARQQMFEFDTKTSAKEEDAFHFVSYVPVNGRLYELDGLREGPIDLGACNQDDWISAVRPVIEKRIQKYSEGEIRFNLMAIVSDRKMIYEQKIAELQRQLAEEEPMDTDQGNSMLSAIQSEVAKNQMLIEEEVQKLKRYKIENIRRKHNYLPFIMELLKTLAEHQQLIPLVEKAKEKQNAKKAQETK
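Material: Human UCH37 enzyme supplied as purified proteasome complex | Schedule: 30 min preincubation with enzyme, 25 min cleavage at room temperature | Detection: AMC fluorescence 355/460 nm | Measure: % inhibition of Ub-AMC cleavage fluorescence | Controls: Wells without proteasome as full block, compound-free enzyme plus substrate as uninhibited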
Ecoli growth: inhibitors of Escherichia coli growth. OD600, 23 h; stronger effect = lower value. OD600 absorbance (test concentration not listed). actives 0.21% (n = 330,000). AID 1053175;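 active means OD600 absorbance below the run mean of sample wells minus 3.6 SD, in any replicate, cut at about 0.56 in these data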;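 further: stock transfer was 300 nL into about 60 µL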
rRNA inh HTS OD600: also measured in rRNA inh HTS; calls as there; OD600 change, %; measured here: OD600 growth;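 optical density of the mix in the first replicate; 0 = DMSO median and -100 = no signal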
rRNA inh HTS RFP: also measured in rRNA inh HTS; calls as there; RFP signal change, %; measured here: RFP humanized mutant strains;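 first replicate; 0 = DMSO median and -100 = no signal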
An asterisk follows results filed as active; i = inactive; . = not tested or not shown.

SMILES	FGF22 binding	Bfl-1 A1 inh	Beta apoptosis	AF4-AF9 inh	T cruzi inh	rRNA inh HTS	rRNA inh HTS OD600	rRNA inh HTS RFP	UCH37 inh	Ecoli growth
Cc1ccsc1CNS(=O)(=O)c1ccc(F)cc1	i	0.8	-4.2	-0.6	-7.2	4.7	8.4	2.2	1.4	0.679
CC(=O)OCC(=O)Nc1ccccc1C	i	-0.7	-3.6	-4.9	-6.8	7.8	13.9	3.6	3.6	0.691
S=C(NCC1CCCO1)Nc1ccc(Cl)c(Cl)c1 (stereo not given)	i	0.0	2.1	-0.1	-16.2	-29.9	-25.4	-4.2	1.5	0.635
CCOc1ccc(OCCCC(=O)N2CCN(S(=O)(=O)c3ccccc3C#N)CC2)cc1	i	1.5	1.9	0.7	.	-12.5	-14.1	1.0	0.5	0.692
O=C(CSc1nnc(Cc2ccccc2)o1)Nc1ccc2c(c1)OCO2	.	-1.3	-0.2	.	-12.0	.	.	.	2.1	0.696
COc1ccc(N2CCN(C(=O)c3cccc(S(=O)(=O)N4CCCc5ccccc54)c3)CC2)cc1	i	0.9	-0.6	5.7	.	-10.1	-20.9	20.8	2.0	0.708
COc1ccc(C(C(=O)NC2CCCC2)N(C(=O)c2ccoc2C)c2ccc(C)c(C)c2)cc1 (stereo not given)	i	-0.9	2.6	-8.8	41.9	5.7	-4.4	2.6	1.3	0.676
Cc1ccc(C(=O)N/C(=C\c2ccco2)C(=O)NCCCN2CCOCC2)cc1C	i	-0.4	-2.8	4.3	2.3	5.2	-1.3	-0.1	3.0	0.69
OC(CN1CCOCC1)C12CC3CC(CC(C3)C1)C2 (stereo not given)	i	0.2	4.1	-44.7	-10.6	5.3	5.1	-6.1	0.6	0.698
O=[N+]([O-])c1ccccc1CN1CCN(Cc2ccc3ccccc3c2)CC1	i	-0.7	3.2	10.4	18.2	-20.8	-16.9	1.3	5.1	0.627
O=C(NCc1ccccc1)C(c1ccco1)N(C(=O)c1ccccn1)c1ccc(F)cc1 (stereo not given)	i	0.2	-6.5	0.9	6.4	3.2	-2.7	0.6	0.5	0.666
COc1ccc(-n2nc(C)c3sc(C)nc3c2=O)cc1	i	1.6	-5.9	-1.3	5.3	-10.8	-4.0	0.4	0.1	0.656
COc1cccc(CN(C)CC2CCCN(CCc3ccccc3C)C2)c1 (stereo not given)	.	0.3	.	4.7	54.5*	8.0	-0.3	1.6	1.4	0.615
O=C(NC(=S)NCc1ccc(Cl)cc1)c1ccco1	i	0.2	-0.7	-1.7	.	-12.9	-52.2	-2.9	1.3	0.659
O=S(=O)(c1cnc(Cl)c(Br)c1)N1CCN(c2ncccn2)CC1	i	-0.5	0.0	-4.3	-12.8	8.4	3.7	1.9	1.0	0.715
CN1CCCN(C(=O)CNC(=O)Cc2ccccc2)CC1	i	-1.1	2.9	-0.1	-4.2	11.3	-2.7	-11.7	2.5	0.696
Cc1cc(Cl)ccc1OCC(=O)N[C@@H](Cc1ccccc1)c1nc2ccccc2[nH]1	.	0.0	1.5	.	-4.0	.	.	.	3.2	0.727
C=CCC1(CC=C)CCCN1C(=O)c1cc(COc2ccccc2SC)on1	i	-0.6	1.7	-0.7	10.2	3.1	3.1	13.1	2.2	0.708
COCCNC(=O)c1ccc(C)cc1C	i	0.3	-3.2	-2.4	-7.5	15.4	14.8	-1.6	1.3	0.667
CCOc1ccccc1OCCCC(=O)Nc1nc2ccccc2[nH]1	i	0.6	-20.3	-2.3	12.7	-2.9	11.8	-3.3	3.4	0.729
Cc1ccc(CNC(=O)C2CCN(C(=O)Nc3ccc(C)cc3)CC2)cc1	.	.	.	4.8	-9.9	11.3	7.4	-0.6	1.0	0.617
COc1cc(NS(=O)(=O)c2cn(C)cn2)cc(OC)c1OC	i	0.8	-2.5	2.1	-0.9	-2.8	-2.7	-0.6	2.3	0.668
CC(C)c1ccc(N(C(=O)c2snc(C(N)=O)c2N)C(C(=O)NC2CCCC2)c2ccncc2)cc1 (stereo not given)	i	-0.1	3.6	4.6	37.7	0.7	-12.1	-3.2	-22.1	0.714
O=C(Nc1ccccc1)c1ccccc1O	.	-2.3	0.2	.	-2.0	.	.	.	-8.2	0.614
CCOc1ccc(N2C(=O)c3ccc(C(=O)OCC(=O)N(CC)C4CCS(=O)(=O)C4)cc3C2=O)cc1 (stereo not given)	i	-0.6	1.1	-2.0	-2.4	23.9	27.1	6.3	6.2	0.668
C=CCOC(=O)CSCC(NC(=O)OC(C)(C)C)C(=O)OCC (stereo not given)	.	-0.2	-7.6	.	6.7	.	.	.	-0.3	0.738
Cc1cc(C)cc(NC(=O)NCc2ccccn2)c1	i	0.1	-9.2	-0.3	-7.6	-1.4	-3.4	2.6	0.5	0.671
O=C(Nc1cccc(N2C(=O)C=CC2=O)c1)c1cccs1	i	1.5	14.3	8.5	61.2*	8.8	0.0	3.0	.	.
Cc1nc([N+](=O)[O-])cn1CC(=O)c1ccc(Cl)cc1	i	0.1	-4.5	-0.6	4.3	6.6	14.7	1.5	3.6	0.644
COc1ccc(/C(C)=N/NC(=O)CNC(=O)Cc2ccccc2)c(OC)c1	i	0.6	-0.7	0.1	0.2	-0.4	5.1	-1.9	.	.
CC1(C)CC2CC(C)(CN2S(=O)(=O)c2ccc(C(=O)Nc3cc(S(=O)(=O)N4CCOCC4)ccc3Cl)cc2)C1 (stereo not given)	.	0.8	-5.6	.	38.4	.	.	.	0.3	0.705
CCC1(CC)Cc2ccccc2-c2nc(-c3ccccc3)oc(=O)c21	.	0.1	-2.1	.	4.9	.	.	.	7.8	0.776
Cc1nc(-c2ccccc2)nc(Cl)c1Cl	.	-0.3	0.8	-0.1	-13.7	5.8	4.2	2.7	1.0	0.696
CC(C)c1ccc(NC(=O)C2CCCN(S(=O)(=O)c3cnc[nH]3)C2)cc1 (stereo not given)	i	-0.1	.	2.7	-8.1	-1.4	-11.0	0.8	6.5	0.695
CC(C)(C)C1(C)OC(C(=O)NC2CCCCC2)C(C(=O)NC2CCCCC2)O1 (stereo not given)	i	0.1	1.8	6.1	17.6	-39.1	-46.3	23.1	0.6	0.695
O=C(c1ccco1)N1CCN(c2ncnc3c2nnn3Cc2ccccc2Cl)CC1	.	1.0	5.6	.	11.5	-27.7	-48.1	-13.1	5.7	0.618
O=c1[nH]c(/C(Cl)=C/c2cccc(F)c2)nc2cc(C(F)(F)F)ccc12	i	-1.7	28.0	1.2	26.4	7.7	6.4	-8.3	-26.5	0.71
Cc1cc(-c2ccc(C)c(S(=O)(=O)NCc3ccc(Br)cc3)c2)on1	i	-0.4	-4.2	-4.5	28.5	-32.9	-58.5	7.9	4.5	0.636
O=S1(=O)CC/C(=N\Nc2ccccc2)c2ccsc21	i	-0.8	-3.3	11.1	2.3	-5.2	-2.7	-2.4	.	.
CC(O)C1C(=O)OC2(C)CC(C)(C)NC(=S)N12 (stereo not given)	.	-0.3	.	.	-13.1	.	.	.	-0.1	0.661
COCCCNC(=O)CSc1nc2ccc(N3CCOCC3)cc2c(=O)n1CCc1ccccc1	.	-0.5	-10.6	.	7.1	.	.	.	-55.2	0.698
CCOc1ccc2ccccc2c1C(=O)Nc1cc(=O)n(C)c(=O)n1C	i	0.0	-2.8	10.2	-3.9	8.3	-0.5	-0.8	7.9	0.716
Cc1cc(-c2nnc(SCC(=O)Nc3ccccc3C)n2N)n[nH]1	i	0.5	-2.1	0.5	2.8	6.5	13.4	-2.6	3.8	0.658
O=S1(=O)NC(C2CC2c2ccccc2)CCO1 (stereo not given)	i	-0.4	-8.3	.	-1.6	5.7	2.7	-0.4	2.8	0.676
O=C(CN(C(=O)CCC(=O)Nc1ccccn1)c1cccc(F)c1)NCc1ccc(F)cc1	i	0.6	-3.6	-4.4	20.0	-3.0	-0.7	1.6	5.2	0.661
O=C(NCCCN1CCCC1=O)c1cccc(S(=O)(=O)N2CCN(c3ccc(F)cc3)CC2)c1	i	-0.5	1.1	-2.0	10.3	5.0	-1.0	1.8	-1.4	0.688
CCc1ccc(N2C(=O)c3cc(N4CCOCC4)c([N+](=O)[O-])cc3C2=O)cc1	.	1.2	0.2	.	-20.9	.	.	.	6.7	0.682
CC(C)c1ccc(NC(=O)CCNS(=O)(=O)c2cccc3nsnc23)cc1	.	-0.4	-3.6	.	9.8	.	.	.	3.5	0.698
O=C(NNC(=O)C1CC=CCC1)c1ccccc1Br (stereo not given)	i	0.0	-3.0	-1.8	-10.2	10.6	12.7	-0.9	0.5	0.629
CC(=O)OCC(=O)C1(O)CCC2C3CC(C)C4=CC(=O)C=CC4(C)C3(F)C(O)CC21C (stereo not given)	i	.	.	2.2	.	-3.5	-6.1	2.7	0.4	0.692
CCN1CCN(c2cc(C)c3cc(NC(=O)c4ccc(OC)c(OC)c4)ccc3n2)CC1	i	0.9	11.0	7.4	30.8	2.7	-5.4	12.8	-15.1	0.758
O=C(c1ccc(Cl)cc1)N1CCc2c([nH]c3ccccc23)C1C(F)(F)F (stereo not given)	i	0.5	-5.4	5.4	.	-21.1*	-15.8*	-1.3*	1.9	0.703
CC(C(=O)Nc1ccccn1)N1C(=O)c2ccccc2S1(=O)=O (stereo not given)	i	-0.1	-4.6	1.5	-7.9	5.8	15.1	-2.3	.	.
O=C(/C=C/c1cccc([N+](=O)[O-])c1)N1CCN(c2ccccc2F)CC1	.	0.6	-6.8	.	-14.8	.	.	.	3.4	0.725
Cc1cc(=O)n2ccccc2c1C#N	.	0.2	-10.3	.	-13.8	.	.	.	i	0.742
Cc1ccc([C@@H]2[C@@H]3C(=O)N(C)C(=O)[C@@H]3[C@]3(C)C(=O)N(Cc4ccccc4)CC(=O)N23)o1	i	0.8	-1.7	0.5	-9.3	.	.	.	24.9*	.
CC1CCN(c2nc3ccc(C(=O)NCCCN4CCCCC4)cc3s2)CC1	i	-0.3	-8.6	0.9	13.7	10.6	9.3	0.3	6.6	0.701
CCOc1ccc(N2C(=O)CC(Sc3nc(-c4cccs4)cc(C(F)(F)F)c3C#N)C2=O)cc1 (stereo not given)	.	0.5	0.8	.	7.7	.	.	.	-5.6	0.732
C/C(=N/NS(=O)(=O)c1ccc(C)cc1)c1ccc(NC(=O)C(F)(F)F)cc1	i	0.3	-5.0	-14.4	-7.7	-1.8	-0.7	-3.0	.	.
N#Cc1ccc(CN2CCN(c3ccc(S(=O)(=O)N4CCCC4)cn3)CC2)cc1	i	-0.3	6.3	0.8	.	3.8	5.2	-0.9	2.3	0.673
CN(C)S(=O)(=O)c1cccc(NC(=O)COC(=O)c2cn(-c3ccccc3)nc2-c2ccccc2)c1	i	0.9	.	-0.4	18.2	6.1	7.8	1.6	2.2	0.682
O=C(O)Cn1c(C(F)(F)F)nc2ccccc21	i	-1.9	-2.8	2.3	-3.7	21.2	22.9	-0.1	5.0	0.694

Not all compounds are listed, so the mix of outcomes need not match the whole.
